# Screening data deposited in PubChem BioAssay by National Center for Advancing Translational Sciences (NCATS).
# VACV Venus inh: vaccinia inhibition (Venus reporter). Vaccinia virus Venus reporter expression, fluorescence. Potency, µM (top dose mostly 36.5 µM), without a hit: top-dose activity change, negative = inhibition, actives largely listed as inhibitors. 330,000 tested, 0.46% active. AID 720580; active means well fitted inhibition curve with a large enough effect; inconclusive means small, poorly fitted or top-dose-only effect; inactive means no such curve, though single readings can be large or run the other way; tested in A549 cells; further: nearly all actives have a fitted effect of over 30% in size; inactives centre near -10
# VACV mCherry inh: inhibitors of vaccinia virus infection (mCherry reporter signal); Vaccinia virus mCherry reporter infection, fluorescence; about a quarter of the inactives have no number; Potency, µM (highest dose often 36.5 µM), for the others: at the top dose activity change, negative = inhibition, actives largely listed as inhibitors; 310,000 tested, 0.63% active; AID 720579; active = well fitted inhibition curve with a large enough effect; inconclusive = small, poorly fitted or top-dose-only effect; inactive = no such curve, though single readings can be large or run the other way; tested in A549 cells; further: nearly all actives have a fitted effect of over 35% in size; inactives centre near -10
# Active calls of the source: *; i = inactive; ? = inconclusive; . = no result given; [ ] = dose if it differs, or a comment. On the % scale 0 is the no-effect control and ±100 the full control effect; potency means the concentration at half of the fitted maximal effect.
# The line under a structure holds: VACV Venus inh, VACV mCherry inh
CC(=Nc1ccccc1)C1=C(O)C(Cc2ccc(F)cc2)NC1=O (configuration not stated)
 : -30%, -29%
CN(C)C(=O)COC(=O)c1ccc(S(=O)(=O)NCc2ccco2)cc1
 : -3%, i
COc1ccc2sc(-c3ccccc3OC)c(-c3ccc(OC)nc3)c2c1
 : -12%, -8%
CSc1ccccc1NC(=O)NCCCl
 : ?, -22%
CCOC(=O)c1ccc(NC(=O)CC2C(=O)N(c3cccc(OC)c3)C(=O)N2Cc2ccc(OC)cc2)cc1 (configuration not stated)
 : -1%, -2%
CC(=O)c1cc(N2CCOCC2)ccc1[N+](=O)[O-]
 : -8%, 4%
CCN1C(=O)[C@@H]2[C@@H](c3ccc(SC4CCCCC4)cc3)N3CCCC[C@@]3(C(=O)OC)[C@@H]2C1=O
 : -11%, i
COc1ccc(CNC(=S)NNC(=O)c2cc3ccccc3o2)cc1
 : 0%, -27%
COc1ccc(S(=O)(=O)N(CC(=O)NCc2ccccc2OC)c2ccc(C)cc2)cc1
 : ?, ?
CN(c1ccccc1)c1ccc(/C=C/[N+](=O)[O-])cc1
 : -27%, -19%
COc1cccc(N2CCN(S(=O)(=O)c3ccc4c(c3)CC(C)N4C(=O)C3CC3)CC2)c1 (configuration not stated)
 : -28%, ?
COC(=O)Nc1c(-c2ccccc2)nc2ccc(Cl)cn12
 : ?, i
C=CCNC(=O)CC(C)C(CCCCC)C(=O)O (configuration not stated)
 : -13%, .
CCOC(=O)c1cnc2cc(-c3ccc(Cl)cc3)nn2c1N
 : 0%, -10%
CCOc1ccccc1CNCc1c(C(=O)O)c(C)n(Cc2ccc(Cl)cc2)c1C
 : -9%, -6%
CC(=O)c1ccc(Nc2ncnc3ccc(Br)cc23)cc1
 : -9%, i
C[C@]12C(=O)N(c3ccccc3)C(=O)N1[C@H]1c3ccccc3OC[C@@H]1[C@H]2c1ccccc1
 : -6%, -13%
Cc1c(C(=O)N2CCCCCC2)c(S(=O)(=O)NCc2ccccc2)c(C)n1C
 : -4%, -3%
CC(C)N(Cc1cnn(C)c1)C(=O)C1CCC(=O)N(CCc2cccc(F)c2)C1 (configuration not stated)
 : -17%, i
Cc1ccc2c(Sc3ccc(Cl)cc3)c(C(=O)NCCC(C)C)[nH]c2c1
 : -12%, -12%
Cc1cccc(NC(=O)CCC(=O)N/N=C/c2ccco2)c1
 : -4%, -14%
O=C(Nc1ccccc1)C1=C(Nc2ccccc2)CSC1
 : -12%, -19%
C[C@H]1CN=C(Nc2ccccc2)N1CC1CCC1
 : -8%, i
COc1ccc(OC)c(C2CC(=O)Nc3n[nH]c(-c4ccccc4)c32)c1 (configuration not stated)
 : -29%, -3%
CCCCCCCCCCCCCCCC(=O)NCCc1c[nH]c2ccccc12
 : -3%, -1%
COc1ccc2[nH]c3c(c2c1)CCNC3c1ccc([N+](=O)[O-])o1 (configuration not stated)
 : 109%[activator], i
COc1cccc(CNC(=O)CCC2CCCN(C(=O)C3CCOCC3)C2)c1 (configuration not stated)
 : -12%, i
Cn1cnc([N+](=O)[O-])c1Sc1ccc([N+](=O)[O-])cc1
 : -14%, -18%
Nc1c(C(=O)NCCc2ccccc2)nnn1CC(=O)Nc1ccc(Cl)cc1
 : -13%, i
Cc1cccc(NS(=O)(=O)c2cc([N+](=O)[O-])ccc2C)n1
 : -8%, i
Cc1cc(C)cc(NS(=O)(=O)c2ccc3[nH]cc(C(=O)NC4CCCCC4)c(=O)c3c2)c1
 : -22%, -27%
O=C(CSc1nc(=O)n2ccccc2n1)NCc1ccccc1
 : -8%, -9%
Cc1ccc(NCC(=O)N/N=C/c2c[nH]c3ccccc23)cc1
 : 4%, ?
O=C(CSc1nnc(-c2ccc(F)cc2)o1)Nc1ccc(S(=O)(=O)N2CCCC2)cc1
 : 5%, -12%
O=C(O)Cn1nnc(COc2ccccc2)n1
 : -10%, -3%
Cc1ccc(-c2nnnn2-c2ccc(C)cc2)cc1
 : -2%, i
Cc1ccc(C(=O)NC2CCC(C)CC2)s1 (configuration not stated)
 : -20%, -22%
COCCCNC(=O)CCCn1c(SCC(=O)c2ccc(Br)cc2)nc2c(sc3ccccc32)c1=O
 : -5%, -10%
COc1ccc2c(c1OC)C(=O)N1c3ccccc3C(=O)N(c3ccccc3F)C21 (configuration not stated)
 : -3%, -10%[1.46 µM]
C=CCOc1ccc2c3c(c(=O)oc2c1)CCCC3
 : -20%, 7%
O=C(/C=C/c1ccc([N+](=O)[O-])s1)N1CCCCC1
 : 14µM*, ?
COc1cccc(-c2ccc3c(N)c(C(=O)NCc4ccc(Cl)cc4)sc3n2)c1
 : -23%, ?
COc1cc(-c2[nH]ncc2CN2CCN(c3cccc(C)n3)CC2)cc(OC)c1OC
 : 0%[7.34 µM], i[7.34 µM]
O=[N+]([O-])c1cccc(Nc2c3ccccc3nc3ccccc23)c1
 : -18%, i
CCc1ccc(CNC(=O)c2cccc(-n3c(C)nc4cccnc43)c2)cc1
 : -25%, -19%

# The final 4 entries of the section above open the next one.
# The line under a structure holds: VACV Venus inh, VACV mCherry inh
COc1cccc(-c2ccc3c(N)c(C(=O)NCc4ccc(Cl)cc4)sc3n2)c1
 : -23%, ?
COc1cc(-c2[nH]ncc2CN2CCN(c3cccc(C)n3)CC2)cc(OC)c1OC
 : 0%[7.34 µM], i[7.34 µM]
O=[N+]([O-])c1cccc(Nc2c3ccccc3nc3ccccc23)c1
 : -18%, i
CCc1ccc(CNC(=O)c2cccc(-n3c(C)nc4cccnc43)c2)cc1
 : -25%, -19%
C=CCNC(=O)N1CCCC(N2CCN(c3ccccc3OC)CC2)C1 (configuration not stated)
 : -3%, -14%
O=C(c1ccccc1)C1CCCN(Cc2nc(-c3cnccn3)no2)C1 (configuration not stated)
 : -14%, -7%
CCSc1nnc(NC(=O)Cc2ccc(OC)c(OC)c2)s1
 : -24%, .
CCOC(=O)c1c(/N=C/N(C)C)sc(/C=N/Nc2ccccc2)c1-c1ccccc1Cl
 : -21%, -19%
CCOc1ccc(N2C(=O)C3=C(C(c4ccc(Cl)cc4)=NCCN3)C2c2cccnc2)cc1 (configuration not stated)
 : -28%, -5%
CS(=O)(=O)c1ccccc1-c1nc(-c2ccc([N+](=O)[O-])cc2)no1
 : -10%, -3%
NNc1nc(C(F)(F)F)nc2ccccc12
 : 6%, -1%
COc1cccc(OCCCCCCN2CCOCC2)c1
 : -1%, .
N#CC(c1ccc(F)cc1)c1ccc(C(=O)c2ccccc2)cc1 (configuration not stated)
 : ?, .
O=C(N/N=C/c1ccc(Sc2nc3ccccc3[nH]2)o1)c1ccncc1
 : -9%, -2%
CC1(C(=O)NS(=O)(=O)c2ccc(C#N)cc2)CCN1C(=O)Cc1ccc(Cl)cc1Cl (configuration not stated)
 : -4%, 18%
COC(=O)c1ccc(C(=O)OC)c(NC(=O)CN2CCCCC2)c1
 : -9%, i
Cc1cc(Nc2ccc(C(=O)O)c(O)c2)n2ncnc2n1
 : 0%, -12%
O=[N+]([O-])c1ccc(-[n+]2ccc3ccccc3c2)c([N+](=O)[O-])c1
 : ?, 10µM*
c1ccc(-c2cn(C[C@H]3CC[C@@H]([C@@H]4CC[C@H](Cn5cc(-c6ccccc6)nn5)O4)O3)nn2)cc1
 : -10%, 0%
COc1ccc(N2CCN(C(CNS(=O)(=O)c3c(C)cc(C)cc3C)c3ccco3)CC2)cc1 (configuration not stated)
 : -18%, -21%
Cn1c(CCN2CCCCC2)nc2cc(NS(=O)(=O)c3ccccc3)ccc21
 : -19%, ?
COc1cc(OC)cc(-c2nnc(SCC(=O)N(Cc3ccccc3)C(C)(C)C)o2)c1
 : -28%, ?
CCc1nnc(NC(=O)CCc2ccccc2OC)s1
 : -13%, i
CN(C)S(=O)(=O)NCCNC(=O)c1cc(OCC(F)(F)F)ccc1OCC(F)(F)F
 : -20%, -13%
COC(=O)c1c(NC(=O)C(=O)NCCCN2CCOCC2)sc2c1CC(C)(C)OC2
 : -15%, i
O=C(CSc1nnc(CNC(=O)c2c(F)cccc2Cl)o1)c1ccccc1
 : -17%, -19%
Cn1cc(-c2cc3n(n2)CCC(=O)N3CCCC(=O)Nc2ccccc2Cl)c2ccccc21
 : -11%, -24%
Cc1ccc(NC(=O)CN2CCc3ccccc3C2)cc1S(=O)(=O)N(C)C
 : -9%, -19%
O=C(CS(=O)CC(=O)NC12CC3CC(CC(C3)C1)C2)Nc1ccc(F)cc1 (configuration not stated)
 : -2%, -7%
CC(C)CCN1CCC[C@]2(N[C@H](c3ccccc3)[C@@H]3C(=O)N(Cc4ccccc4)C(=O)[C@@H]32)C1=O
 : -13%, -9%
Cc1ccc2cccc(Oc3ncnc4sc(C)c(C)c34)c2n1
 : -17%, ?
COc1cccc(NC(=O)C(C)OC(=O)CCCNC(=O)c2ccc(Cl)cc2)c1 (configuration not stated)
 : -12%, -10%
O=C(COC(=O)/C=C/c1ccco1)NCCN1C(=O)CSC1=O
 : -8%, -28%
O=C(NCCCN1CCOCC1)c1ccc(CS(=O)(=O)Cc2ccccc2Cl)o1
 : -10%, i
Cc1csc(=O)n1CC(=O)OCC(=O)Nc1ccc(F)c(F)c1
 : -1%, -11%
CCOC(=O)CSc1nc2ccccc2n1CC(=O)N1CCN(c2ccccc2)CC1
 : -1%, -10%
CCOc1ccc(CCNC(=O)CCOc2cc(C)ccc2C)cc1OCC
 : -13%, -20%
COc1cc(OC)nc(Nc2nc(C(N)COCc3ccccc3)cs2)n1 (configuration not stated)
 : ?, -15%
Cc1cc(C(=O)CSc2nnc(CCC(N)=O)n2C)c(C)n1C1CC1
 : -12%, -13%
Cc1ccc(NC(=O)CCNC(=O)c2ccccc2)cc1F
 : 5%, -5%
C/C(=N\NC(=O)c1ccc(N(C)C)cc1)c1ccc(C)c(C)c1
 : -6%, -17%
NC(=O)CC(NC(=O)Cc1ccc(Br)cc1)c1ccc(N2CCN(c3ccccn3)CC2)c([N+](=O)[O-])c1 (configuration not stated)
 : ?, ?
COc1ccc(CNC(=O)C(=O)NCc2cccnc2)cc1
 : 2%, i
COCCCNC(=S)NNC(=O)c1cc(-c2cccnc2)nc2ccccc12
 : -7%, i
O=C(CCS(=O)(=O)c1cccs1)Nc1ccc(C(=O)NCc2ccccc2)cc1
 : -14%, -16%
O=C(O)CSc1c2c(nc3cc(C(=O)Nc4ccc(F)c(Cl)c4)ccc13)CCC2
 : -3%, -4%
Cc1cc(C)cc(NC(=O)CSc2nccn2-c2ccccc2)c1
 : -13%, -17%
O=C1c2ccccc2C(=O)N1CSc1nnc(Nc2ccccc2)s1
 : 7%, -2%
Cc1ccc(-c2noc(CCC(=O)N3CCN(c4cc(C)ccc4C)CC3)n2)cc1
 : -2%, i
CCOC(=O)C(C)Sc1nc2c(c(=O)[nH]c(=O)n2C)n1C/C=C(/C)Cl (configuration not stated)
 : -7%, .
Cc1ccc(CSC2=Nc3ccccc3C3=NC(CCC(=O)NCc4cccs4)C(=O)N23)cc1 (configuration not stated)
 : -2%, -9%
O=C(NNC(=O)c1cc(-c2ccc(Cl)c(Cl)c2)nc2ccccc12)Nc1ccccc1
 : -17%, i
S=C(c1ccc(-c2ccc(Br)cc2)o1)N1CCOCC1
 : -21%, ?
COc1ccc(NC(=O)Cc2c(SC)c3ccccc3n2Cc2ccccc2)cc1
 : ?, -15%
Clc1ccc(CSc2ccc(-c3ccccn3)nn2)cc1
 : -6%, ?
COc1ccccc1NC(=O)c1ccc(NS(=O)(=O)c2cccc3cccnc23)cc1
 : -29%, ?
COc1cccc(-c2nc(C(=O)NCCCN3CCOCC3)cc3c2[nH]c2ccccc23)c1
 : -28%, ?
CC1=C(C(=O)OCCOc2ccccc2)C(c2ccc(C)o2)C2=C(CC(C)(C)CC2=O)N1 (configuration not stated)
 : ?, .
O=C(NCCCN1CCCC1=O)c1cccc(S(=O)(=O)NCc2ccccc2)c1
 : -15%, -4%
Cc1cc(C(C)(C)C)oc1C(=O)N(CC(=O)NC1CCCC1)Cc1ccccc1
 : -5%, -10%
CCOC(=O)N1CCN(C(=O)CSc2nnc(-c3c[nH]c4ccccc34)n2CCOC)CC1
 : -3%, -21%
CC(c1ccccc1)C1CC(=O)N(c2cc(Cl)ccn2)C1=O (configuration not stated)
 : 1%, -1%
COC(=O)CCCCNC(=O)Nc1ccccc1
 : -7%, -12%

# Profiles, quoted from the list. Order of screens: VACV Venus inh | VACV mCherry inh
# `Clc1ccc(CSc2ccc(-c3ccccn3)nn2)cc1` reads -6% | ?
# `O=C(NCCCN1CCCC1=O)c1cccc(S(=O)(=O)NCc2ccccc2)c1` reads -15% | -4%
# `COC(=O)CCCCNC(=O)Nc1ccccc1` reads -7% | -12%
# `CCOC(=O)C(C)Sc1nc2c(c(=O)[nH]c(=O)n2C)n1C/C=C(/C)Cl` (configuration not stated) reads -7% | .

# An excerpt from above in order of length of the SMILES, low to high.
# The line under a structure holds: VACV Venus inh, VACV mCherry inh
CC(c1ccccc1)C1CC(=O)N(c2cc(Cl)ccn2)C1=O (configuration not stated)
 : 1%, -1%
O=C(NCCCN1CCCC1=O)c1cccc(S(=O)(=O)NCc2ccccc2)c1
 : -15%, -4%
CCOC(=O)N1CCN(C(=O)CSc2nnc(-c3c[nH]c4ccccc34)n2CCOC)CC1
 : -3%, -21%
Cc1ccc(CSC2=Nc3ccccc3C3=NC(CCC(=O)NCc4cccs4)C(=O)N23)cc1 (configuration not stated)
 : -2%, -9%
